N370S GC mod = N370S glucocerebrosidase modulation, Gaucher chaperone candidate | N370S GC spleen homogenate, 4MU-glucoside fluorescence | Potency, µM (titrated, usually from 59.4 µM), without a hit: top-dose activity change, negative = inhibition, most hits filed as inhibitors | 0.092% of 330,000 active | AID 2101;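 further: 0% = full enzyme activity and -100% = no enzyme basal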
FEN1 inh = inhibitors of human flap endonuclease 1; P39748; Recombinant FEN1 flap cleavage, fluorescence, 15 min; Potency, µM (highest dose often 114 µM), for the others: at the highest dose activity change, negative = inhibition, hits mostly inhibitors; 0.35% of 390,000 active; further: nearly all actives have a fitted effect of over 65% in size
Target sequence (P39748 whole entry, looked up): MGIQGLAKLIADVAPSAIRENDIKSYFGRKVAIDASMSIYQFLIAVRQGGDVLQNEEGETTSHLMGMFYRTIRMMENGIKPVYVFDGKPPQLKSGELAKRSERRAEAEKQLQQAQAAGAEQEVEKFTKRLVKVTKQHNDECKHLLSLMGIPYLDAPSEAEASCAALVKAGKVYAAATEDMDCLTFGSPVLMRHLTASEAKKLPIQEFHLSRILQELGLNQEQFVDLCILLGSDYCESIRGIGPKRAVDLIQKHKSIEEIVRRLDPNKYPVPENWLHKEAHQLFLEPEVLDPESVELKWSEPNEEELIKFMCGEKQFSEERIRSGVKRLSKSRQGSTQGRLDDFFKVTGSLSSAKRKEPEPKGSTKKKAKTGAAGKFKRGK
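Concentration–response screening of FEN1 (10 nM): 15 min compound preincubation at room temperature, reaction started with 50 nM substrate and read at 0 and 15 min. Corrected, normalized data were fitted by a four-parameter Hill equation.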
* marks the source's active call; other numbers are inactive results; ? = inconclusive; nt = no result given; & = joins results of further samples; [ ] = dose if it differs, or a comment. The call rests on the fitted dose curve; in most records, active means well fitted curve in the direction sought with a large enough effect; inconclusive means small, poorly fitted or top-dose-only effect, or another doubt; inactive means no such curve, though single readings can be large; an effect the other way counts as inactive or inconclusive. Unless noted, on the % scale 0 is the no-effect control and ±100 the full control effect; potency means the concentration at half of the fitted maximal effect. This is a subset; most or all hits stand in other tables.

SMILES	N370S GC mod	FEN1 inh
CCc1ccc(Oc2coc3cc(OCC(=O)Nc4cc(C)ccc4C)ccc3c2=O)cc1	-16%	-2%
COCCCNC(=S)NNC(=O)c1csc2ccccc12	4%	6%
O=C(COc1ccc([N+](=O)[O-])cc1)Nc1cccc2nsnc12	-2%	-3%
Cc1ccc(C(=O)NCC(=O)OCc2csc(-c3ccccc3)n2)cc1	-13%	-18%
O=C(O)c1cnn2c(C(F)(F)F)cc(-c3ccco3)nc12	-11%	-1%
CC1CCN(C(=O)C2CCN(S(=O)(=O)c3cccs3)CC2)CC1	3%	0%
O=C(N/N=C/c1ccc2c(c1)OCO2)C(=O)N1CCCC1	5%	-1%
O=S(=O)(NCC(c1ccc2c(c1)OCO2)N1CCN(c2ccccc2)CC1)c1ccccc1 (centres undefined)	-3%	9%
COc1ccc(Br)cc1C(=O)Nc1ccc(-c2nc3ncccc3o2)cc1C	nt	-7%
COc1ccc(C(=O)OCC(=O)NCCN2C(=O)CSC2=O)cc1	-7%	-2%
COc1ccc(NS(=O)(=O)c2cc(NC(=O)C3CCCO3)ccc2N2CCCCC2)cc1 (centres undefined)	11%	6%
C#CCOCCOCCOCCNc1nc(N2CCOCC2)nc(N2CCN(C(=O)CCCCCCCCCCNC(=O)[C@H](CO)n3cc(CCCCCN)nn3)CC2)n1	-24%	0%
CCO[C@@H]1OC(C(=O)N2CCN(Cc3ccccc3)CC2)=C[C@H](c2ccccc2)[C@H]1CCCO	2%	-3%
COc1ccc(Cl)cc1-c1nc(N)nc(NC2CCCCC2)n1	-17%	7%
O=C(Oc1ccc2ccc(=O)oc2c1)c1ccc([N+](=O)[O-])cc1	?	16%
COc1ccc(CCNC(=O)CSc2n[nH]c(-c3ccccc3Cl)n2)cc1OC	nt	-12%
COC(=O)c1cccc(C23CC4(C2)[C@H](CN(Cc2ccc(C(F)(F)F)cc2)[C@@H]4c2ccccc2)C3c2ccc(Cl)nc2)c1 (some centres undefined)	-4%&-11%	3%
CN(C)c1ccc(C(CNC(=O)c2ccccc2)c2c[nH]c3ccccc23)cc1 (centres undefined)	8%	-5%
COc1ccc2nc(N(CCN(C)C)C(=O)c3ccc(C(=O)c4ccccc4)cc3)sc2c1	-22%	-23%
COc1ccc(C(=O)O/N=C(\N)Cc2cccs2)cc1OC	-2%	2%
Cc1ccc(NC(=O)c2ccc3c(c2)C(=O)N(c2ccccc2C)C3=O)nc1	nt	2%
COc1cccc(CNCCNC(=O)c2nonc2N)c1	3%	14%&-5%
COc1ccc(CNC(=O)CSc2nnc3c(n2)[nH]c2ccc(F)cc23)cc1	-3%	0%
CCN(CCNC(=O)Cn1cc2c(n1)CCCC2)c1ccccc1	3%	-13%
COc1cc(-c2ccc3c(=O)c4ccccc4sc3c2)cc(OC)c1OC	nt	18%
COc1ccc(C(=O)Nc2cccc(C(C)=O)c2)cc1OC	1%[2.35 µM]	-3%
O=c1nc(N2CCOCC2)ccn1Cc1ccc(Br)cc1	9%	-2%
Cc1ccc(OCC(=O)N/N=C/c2cccnc2)cc1	-7%	-7%
CC(C)(C)n1nc2c(c1NC(=O)c1cccc(C(F)(F)F)c1)CS(=O)C2 (centres undefined)	-3%	11%
O=C1CCc2cc(S(=O)(=O)NC3CCCCC3)cc3c2N1CC3	-1%	22%
CN(C)c1ccc(NC(=O)CN2CCN(CC(=O)Nc3ccc(Br)cc3)CC2)cc1	nt	20%
O=C(NC1CCCCC1)N(Cc1nc2ccccc2c(=O)[nH]1)C1CCCCC1	?	16%
CN(CC(=O)Nc1ccccc1Cl)C(=O)CCNC(=O)Nc1ccccc1	nt	18%
CCOc1ccccc1CN1CCNC(=O)C1CC(=O)NCc1cc(C)n(C)n1 (centres undefined)	1%	-3%
CC(C)NS(=O)(=O)c1ccc(N2C(=O)c3ccccc3C2=O)cc1	1%	-6%
CCOC(=O)c1c(NC(=O)c2ccc(C)c(C)c2)sc2c1CCCCC2	nt	15%
COc1ccccc1/C=C1\SC(=O)N(CCC(=O)N2CCCCC2CCO)C1=O (centres undefined)	-11%	-12%
O=C(O)c1cc(N2C(=O)C3CC=CCC3C2=O)ccc1NCc1cccnc1 (centres undefined)	-9%	-2%
O=C(N1CCCCC1)C1(c2ccccc2)CCCCC1	-4%	-4%
CCN(CC(=O)Nc1ccc(C)c(F)c1)CC(=O)NC(C)(C)C	-7%	-7%

Some of the entries so far, as a markdown table.
| SMILES | N370S GC mod | FEN1 inh |
| --- | --- | --- |
| CC(C)NS(=O)(=O)c1ccc(N2C(=O)c3ccccc3C2=O)cc1 | 1% | -6% |
| O=C(NC1CCCCC1)N(Cc1nc2ccccc2c(=O)[nH]1)C1CCCCC1 | ? | 16% |

(more compounds)
SMILES	N370S GC mod	FEN1 inh
O=C(CSc1ccc(-c2ccccc2)nn1)N1CCOCC1	2%	3%
CC1CCN(S(=O)(=O)c2ccc3c(c2)oc(=O)n3CC(=O)N2CCc3ccccc3C2)CC1	8%	-2%
Cc1cc(NC(=O)CSc2nc3c(c(=O)n(C)c(=O)n3C)n2C(C)C)no1	5%	-8%
CC(=O)N1CCc2cc(S(=O)(=O)CCC(=O)NCCc3ccc(C)cc3)ccc21	4%	10%
Cc1ccc(NC(=O)C2CCCN(S(=O)(=O)c3c(C)n[nH]c3C)C2)cc1C (centres undefined)	nt	8%
CC(CNC(=O)CCCn1ncn2c(cc3occc32)c1=O)c1ccccc1 (centres undefined)	-8%	15%
c1ccc2n[nH]nc2c1	-5%	-4%
CC(C)C(NS(=O)(=O)c1ccc2c(c1)oc(=O)n2C)C(=O)N1CCN(Cc2ccccc2)CC1 (centres undefined)	-13%	-1%
C=CCN(C(=O)c1oc2c(Cl)cc(C)cc2c1C)C1CCS(=O)(=O)C1 (centres undefined)	1%	-20%
O=C(CSc1ncccn1)NCc1cccs1	3%	18%

Looked up one by one from the entries so far (3):
SMILES	N370S GC mod	FEN1 inh
CC(CNC(=O)CCCn1ncn2c(cc3occc32)c1=O)c1ccccc1 (centres undefined)	-8%	15%
O=C(CSc1ncccn1)NCc1cccs1	3%	18%
CC(=O)N1CCc2cc(S(=O)(=O)CCC(=O)NCCc3ccc(C)cc3)ccc21	4%	10%

Remaining list, next part.
SMILES	N370S GC mod	FEN1 inh
Cc1cc(C)n2nc(-c3ccccc3)cc2n1	3%	1%
CCn1c(SCC(=O)Nc2ccc(F)cc2)nnc1C1CC1	-3%	9%
O=C(Nc1ncnc2sc3c(c12)CCCCC3)c1ccccc1	1%	-16%
COc1c(C)cc(C(=O)C2CCCN(C(=O)c3csc(C)n3)C2)cc1C (centres undefined)	3%	0%
COc1ccc(CNCc2ccc(C(F)(F)F)cc2)cc1OC	-6%	0%
O=C(NN1C(=O)c2cc(Br)ccc2NC1c1ccccc1Cl)c1ccncc1 (centres undefined)	-12%	17%
COc1ccc(C(C#N)Nc2ccccc2OC)cc1 (centres undefined)	-14%	-4%
COC(=O)c1ccc(C(NC(=O)OCc2ccccc2)/C(=C/[C@@H](C)C(=O)NCc2cccnc2)c2cccnc2)cc1 (some centres undefined)	-13%	nt
CNC1(C)C2CCC(C2)C1(C)C (centres undefined)	-4%&0%	nt
Cc1cc(OCC(=O)NC2CC(C)(C)NC(C)(C)C2)c2c(C)c(C)c(=O)oc2c1	-2%	-10%
CCCc1sc(N/N=C/c2ccccn2)nc1-c1ccc(Br)cc1	1%	-14%
C=CCN1C(=Nc2ccccc2)SC/C1=C\C(=O)OC	5%[2.35 µM]	-5%
C[C@H](CO)N1C[C@H](C)[C@@H](CN(C)C(=O)Nc2ccc3c(c2)OCO3)Oc2c(NS(=O)(=O)c3cn(C)cn3)cccc2C1=O	nt	0%
Cc1nn(C)c(Cl)c1C(=O)NCC(=O)NCc1ccccc1	-6%	5%
Cc1cc(C)c(C#N)c(SCc2ccccc2F)n1	-15%	2%
CCOC(=O)c1cc(-c2ccccc2)sc1NC(=S)Nc1cccc(C)n1	7%	5%
Cc1cccc(C)c1NC(=O)C1(N(Cc2ccco2)C(=O)Cn2nnnc2N)CCCCC1	15%	7%
COc1ccc(CNC(=O)c2ccc(Cn3cc(Br)cn3)o2)cc1	10%	7%
Cc1cc(C)c(COc2ccc(/C=N/n3c(C)n[nH]c3=S)cc2)c(C)c1	2%	-21%
COc1ccc(CCNc2ccc(S(=O)(=O)N3CCN(C)CC3)cc2[N+](=O)[O-])cc1	-9%	-3%
CC(=O)Nc1cnc2ccccc2n1	2%	0%
COc1ccccc1NC(=O)c1ccc(NC(=O)CN2CCCC2)cc1	-1%	6%
CCNC(=O)CSc1nnc(-c2cccc(S(=O)(=O)N(CC)CC)c2)n1CCc1ccccc1	1%	-5%
CCC(C)NC(=O)CCCc1ccccc1 (centres undefined)	-16%	-1%
O=C(Nc1nccs1)c1ccc(COc2ccccc2)o1	3%	0%
COc1ccc(N2CCN(C3CCCN(C(=O)c4ccoc4)C3)CC2)cc1 (centres undefined)	0%	-1%
O=C(CCNS(=O)(=O)c1ccc2[nH]c(=O)oc2c1)NCc1ccc(F)cc1	-6%	-4%
COC(=O)c1ccc(Cn2cnc3c(sc4nc(N5CCOCC5)c5c(c43)CCCC5)c2=O)o1	8%	-12%
CC(=O)c1cc2c(cc1N/C(=N/S(=O)(=O)c1ccc(F)cc1)c1ccccc1)OCO2	nt	-1%
O=C(c1cc2ccccc2oc1=O)N1CCN(c2ncccn2)CC1	5%	1%
Cc1cccc(C(=O)Nc2cc(Cl)ccc2-n2cncn2)c1[N+](=O)[O-]	2%	-3%
O=C(COC(=O)/C=C/c1ccc(Cl)cc1Cl)NCC1CCCO1 (centres undefined)	nt	-13%
Cc1cccc(/C(N)=N/OC(=O)c2ccc(F)cc2)c1	-18%	2%
COc1ccccc1-c1nc(C#N)c(N2CCc3ccccc3C2)o1	?	-5%
CCc1nnc(NC(=O)[C@@H](NC(=O)c2cccc(C)c2)C(C)C)s1	4%	1%
O=C(O)CNS(=O)(=O)c1cccc2nsnc12	-24%	-14%
CC(=O)Nc1ccc(NC(=O)c2ccccc2S(=O)(=O)c2ccc([N+](=O)[O-])cc2)cc1	23%	-3%
CC(=O)C1=C(Nc2ccc(C)cc2)CC(C)(O)C(C(C)=O)C1c1ccco1 (centres undefined)	-16%	-17%
O=C(NNc1ccc(Cl)cc1)c1sccc1Cl	2%	3%
O=C(COc1ccc(Cl)cc1)NC1=NN(c2ccccc2)C(=O)C1	-15%	-25%

One compound at a time (already shown). Values in the order: N370S GC mod, FEN1 inh
CC(=O)Nc1ccc(NC(=O)c2ccccc2S(=O)(=O)c2ccc([N+](=O)[O-])cc2)cc1 as listed: 23%, -3%
O=C(O)CNS(=O)(=O)c1cccc2nsnc12 as listed: -24%, -14%
Cc1cccc(/C(N)=N/OC(=O)c2ccc(F)cc2)c1 as listed: -18%, 2%
COc1ccccc1-c1nc(C#N)c(N2CCc3ccccc3C2)o1 as listed: ?, -5%
O=C(COC(=O)/C=C/c1ccc(Cl)cc1Cl)NCC1CCCO1 (centres undefined) as listed: nt, -13%

(listing goes on)
SMILES	N370S GC mod	FEN1 inh
CC(=O)Nc1sc(C)c(C)c1C(=O)OC1CCOC1=O (centres undefined)	1%	-2%
O=C(CC1C(=O)N(c2ccc(F)cc2)C(=O)N1Cc1cccnc1)Nc1ccc(F)cc1 (centres undefined)	nt	15%
COC(=O)NCC(c1cccnc1)N1CCOCC1 (centres undefined)	4%	-3%
CC(CCc1ccccc1)NS(=O)(=O)c1ccccc1F (centres undefined)	0%	1%
Cc1cc2cc(CCNC(=O)CCCc3ccccc3)c(=O)[nH]c2cc1C	-7%	17%
CCN(CC)S(=O)(=O)c1ccc(OC)c(NC(=S)Nc2ccc(C)c(C)c2)c1	-17%	5%
CCc1ccccc1NC(=O)C(=O)c1cc(C)n(-c2ccccc2F)c1C	nt	-8%
CC(C)=NO[C@@H](C)c1cn([C@@H]2COC[C@@H]2O)nn1	18%[12.8 µM]	nt
CC(=O)Nc1ccc(NC(=O)C2Cc3ccccc3N2C(=O)c2ccccc2)cc1 (centres undefined)	nt	-6%
O=C(CS(=O)(=O)Cc1ccccc1)N1CCc2ccccc21	7%	4%
Cc1sc2nc(SCC(=O)c3cc(C)n(CC4CCCO4)c3C)n(C(C)C)c(=O)c2c1C (centres undefined)	1%[2.35 µM]	-18%
COC(=O)c1ccc2c(c1)N(Cc1ccccc1F)C(=O)c1ccccc1S2=O (centres undefined)	9%	0%
COc1cnc(SCC(=O)O)[nH]c1=O	-8%	-1%
CC(C(=O)Nc1ccccc1C(=O)N1CCOCC1)N(c1ccc(Cl)cc1)S(C)(=O)=O (centres undefined)	-5%	3%
CCOc1ccc(NC(=O)C(C)N2C(=O)c3ccccc3C2=O)cc1 (centres undefined)	1%	-3%
CCc1ccc(Oc2ncnc(N)c2[N+](=O)[O-])cc1	-4%	3%
CC(C)(C)c1ccc(/C=N/NC(=S)Nc2cccnc2)cc1	-5%	nt
O=C(COC(=O)/C=C/c1ccccc1Cl)NCC1CCCO1 (centres undefined)	nt	-3%
COc1ccc(-c2nnc(Nc3ccc(OC)c(C(=O)N4CCCCC4)c3)c3ccccc23)cc1	29%	13%
CCOc1ccc(N(Cc2ccc(C(=O)O)cc2)S(=O)(=O)c2ccc(C)cc2)cc1	7%	-3%

Bioassay records as filed in PubChem BioAssay.
